Compound activity: PubChem, National Center for Advancing Translational Sciences (NCATS)
MARV entry inh: Marburg virus entry inhibition; Marburg virus pseudotyped entry inhibition, cell reporter; control for the full effect not named in the record; about a third of the inactives were read at about 46 µM; Potency, µM (doses to about 37.8 µM), for inactives: top-dose activity change, negative = inhibition, usual class: inhibitors; 1.8% of 300,000 active; AID 540276; active = well fitted inhibition curve with a large enough effect; inconclusive = small, poorly fitted or top-dose-only effect, or effect the other way; inactive = flat fitted curve, though single readings scatter; tested in HEK293 cells; about a fifth of its hits are not listed in these tables; also: % is scaled to controls: 0 for no effect and ±100 for the full control effect; luciferase read-out
SARS PLP yeast: inhibitors of SARS-CoV papain-like protease in yeast | Potency, µM (top dose mostly 32.9 µM), without a hit: top-dose activity, positive = growth rescue | 0.19% of 330,000 active | S. cerevisiae expressing SARS-CoV PLpro, growth rescue; control for the full effect not named in the record; active means well fitted rising curve with a large enough effect; inconclusive means small, poorly fitted or top-dose-only effect; inactive means no such curve, though single readings can be large or run the other way; also: 0% is about no effect; nearly all actives have a fitted effect of over 55% in size; growth read by luminescence after 48 h
Cruzain Triton: inhibitors of Trypanosoma cruzi cruzain with detergent. P25779. 0.43% of 200,000 active. Potency, µM, without a hit: max response, negative = inhibition, hits mostly inhibitors. AID 1478. purified cruzain, Z-FR-AMC fluorescence, 0.01% Triton;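 also: plate controls were neutral wells for no effect and buffer without enzyme for full effect; nearly all actives have a fitted effect of over 40% in size; top concentration of the series not given in the record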
Target sequence (P25779 123-467 limits assumed): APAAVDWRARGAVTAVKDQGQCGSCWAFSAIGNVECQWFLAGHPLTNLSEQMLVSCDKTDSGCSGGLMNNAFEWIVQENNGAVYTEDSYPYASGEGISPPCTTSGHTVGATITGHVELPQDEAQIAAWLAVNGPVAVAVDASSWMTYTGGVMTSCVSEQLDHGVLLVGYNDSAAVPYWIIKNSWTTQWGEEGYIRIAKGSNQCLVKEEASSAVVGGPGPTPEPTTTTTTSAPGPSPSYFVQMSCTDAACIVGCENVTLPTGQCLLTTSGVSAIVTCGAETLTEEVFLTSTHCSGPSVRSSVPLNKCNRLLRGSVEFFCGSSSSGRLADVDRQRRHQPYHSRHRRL
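Compounds were screened in titration against cruzain (1.5 nM) with 0.01% Triton X-100 to counter colloidal aggregation. Activity was the AMC fluorescence increase over 60 s after adding 2 uM Z-FR-AMC at pH 5.5.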
NS1 function inh: blocks influenza NS1 protein function. S. cerevisiae slowed by influenza A NS1, growth recovery by OD600. Potency, µM (highest dose often 46.1 µM), without a hit: at the top dose activity, positive = more growth. 0.4% of 270,000 active; active means well fitted rising curve with a large enough effect; inconclusive means small, poorly fitted or top-dose-only effect; inactive means no such curve, though single readings can be large or run the other way; also: nearly all actives have a fitted effect of over 50% in size
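Compounds were scored for reversing the slow growth caused by influenza A NS1 in S. cerevisiae, measured by optical density at 600 nm. Assay medium contained 2% galactose at pH 6.0; NS1-free yeast of the same strain were the positive control.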
RE007 growth inh: less growth of the S. pombe RE007 Vpr strain; S. pombe RE007 Vpr strain, BacTiter-Glo ATP luminescence, 24 h; control for the full effect not named in the record; Potency, µM (series often up to 92.2 µM), without a hit: at the top dose activity change, negative = less growth; 0.21% of 360,000 active; active = well fitted falling curve with a large enough effect; inconclusive = small, poorly fitted or top-dose-only effect; inactive = no such curve, though single readings can be large or run the other way;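 also: % is scaled to controls: 0 for no effect and ±100 for the full control effect; nearly all actives have a fitted effect of over 50% in size; the assay follows cell death caused by Vpr and the record does not say whether a fall means rescue or toxicity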
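Fission yeast strain RE007, carrying one chromosomally integrated HIV-1 vpr copy, was seeded at OD 0.01 in PMG+AL medium with 23 nL pinned compound. After 24 h at 30 °C and 99% humidity, viability was read by BacTiter-Glo luminescence.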
StopGo reporter: lowers the luciferase signal of an FMDV 2A StopGo reporter. Potency, µM (titrated, usually from 57.9 µM), inactives show at the highest dose signal change, negative = less light. human cells with a luciferase reporter of 2A StopGo recoding; control for the full effect not named in the record. 1.2% of 410,000 active; active = well fitted falling curve with a large enough effect; inconclusive = small, poorly fitted or top-dose-only effect; inactive = no such curve, though single readings can be large or run the other way; tested in HEK293T cells; also: % is scaled to controls: 0 for no effect and ±100 for the full control effect; nearly all actives have a fitted effect of over 45% in size; luciferase light after 4 h
Cruzain inh noDet: inhibitors of Trypanosoma cruzi cruzain without detergent; purified cruzain, Z-FR-AMC fluorescence, no detergent; 2.3% of 200,000 active; AID 1476; Potency, µM, for inactives: max response, negative = inhibition, actives largely listed as inhibitors;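 also: plate controls were enzyme without inhibitor for no effect and buffer without enzyme for full effect; nearly all actives have a fitted effect of over 40% in size; top concentration of the series not given in the record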
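Purified cruzain at 1.5 nM, pre-incubated 15 min with compound at room temperature in 100 mM sodium acetate pH 5.5, 5 mM DTT, 0.00005% Triton X-100. Reaction started with 2 uM Z-FR-AMC; AMC fluorescence increase over 60 s gives rate.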
Lassa entry inh: blocks Lassa virus binding to or entry into cells; Lassa virus pseudotype entry inhibition, cell reporter; control for the full effect not named in the record; Potency, µM (series often up to 37.9 µM), for inactives: at the highest dose activity change, negative = inhibition, actives largely listed as inhibitors; 1.2% of 300,000 active; AID 540256; active means well fitted inhibition curve with a large enough effect; inconclusive means small, poorly fitted or top-dose-only effect, or effect the other way; inactive means flat fitted curve, though single readings scatter; tested in HEK293 cells; also: % is scaled to controls: 0 for no effect and ±100 for the full control effect; nearly all actives have a fitted effect of over 50% in size; luciferase read-out
Active calls of the source: *; ? = inconclusive; nt = no result given; & = joins results of further samples; ! = not active in a repeat; [ ] = dose if it differs, or a comment. Unless noted, calls follow the shape of the dose curve; as a rule, active = well fitted curve in the direction sought with a large enough effect; inconclusive = small, poorly fitted or top-dose-only effect, or another doubt; inactive = no such curve, though single readings can be large; an effect the other way counts as inactive or inconclusive. Potency is read from the fitted curve at half-maximal effect.

no.	Molecule	MARV entry inh	SARS PLP yeast	Cruzain Triton	NS1 function inh	RE007 growth inh	StopGo reporter	Cruzain inh noDet	Lassa entry inh
1	COc1cc(-n2nnnc2SCC(=O)N2CCN(c3ccc(F)cc3)CC2)c(OC)cc1Cl	?	4%	4.1%	-48%	-4%	?	-13%	?
2	COc1cc(Cl)ccc1OCc1cc(C(=O)N(C)CCc2c(C)n[nH]c2C)no1	2%	4%	nt	-16%	3%	9%	nt	-4%
3	COc1cccc(-n2cc(C(=O)NCCc3cccc(C)c3)c3ccccc3c2=O)c1	nt	nt	-4.3%	nt	nt	6%	14%	-9%[46.1 µM]
4	COc1ccc(S(=O)(=O)CCC(=O)NCCc2cccc(C)c2)cc1	21%	10%	-0.2%	2%	18%	5%	-1%	10%
5	CCC(C)(C(=O)NC1CCCC1)N(C)C(=O)c1ccccn1 (stereo unspecified)	6%[46.1 µM]	1%	nt	nt	10%	-2%	nt	-7%
6	CC1CCCCC1NC(=O)NC(=O)COC(=O)c1nccnc1N (stereo unspecified)	?	-7%	nt	nt	-6%	-7%	nt	15%
7	O=C(N/C(=C\c1cccnc1)c1nc2ccccc2[nH]1)c1cccc(Br)c1	?	-1%	-10%	24%	-2%	2%	4%	-4%
8	CCn1c(CCNC(=O)c2ccc(OC)cc2)nnc1SCC(=O)Nc1ccccc1F	2%[46.1 µM]	1%	nt	-2%	9%	-11%	nt	13%[46.1 µM]
9	COc1cc(CC(=O)NCC2CCCCC2)cc(OC)c1OC	nt	0%	nt	0%	11%	-20%	nt	nt
10	COc1ccc(S(=O)(=O)Nc2nc3ccccc3nc2Nc2cccc(C(=O)O)c2)cc1	nt	-2%	nt	-9%	7%	6%	nt	nt
11	CNC(=S)N/N=C/c1c(C)cccc1Cl	-1%	2%	nt	-3%	3%	-14%	nt	0%
12	COc1cccc2c(SCC(=O)N/N=C/c3ccc(O)cc3O)cc(C)nc12	?	?	nt	7%	-19%	?	nt	?
13	CSCC(=O)Nc1ccc(F)c(Cl)c1	-21%	0%	nt	-3%	4%	-13%	nt	0%
14	Cc1ccc(C(C2=C(O)CC(C)(C)CC2=O)C2C(=O)CC(C)(C)CC2=O)s1 (stereo unspecified)	2%	-3%	-1.6%	10%	12%	?	3%	?
15	Cc1c(NC(=O)/C(=C\c2ccccc2)NC(=O)c2ccccc2)c(=O)n(-c2ccccc2)n1C	16%	2%	0.4%	-2%	?	0%	0%	10%
16	O=C(CSCC(=O)OCn1nnc2ccccc2c1=O)Nc1ccc(Cl)cc1	?	-17%	-3.7%	-36%	6%	11%	-23%	8%
17	Cc1cccc(C(=O)Oc2ccccc2-c2nnco2)c1	-11%	nt	0.4%	-10%	-14%	-10%	-11%	-8%
18	CCOC(=O)c1c(NC(=O)CN2C(=O)NC(C)(c3ccc(Cl)cc3)C2=O)sc(C(=O)NC)c1C (stereo unspecified)	?	8%	-0.9%	14%	3%	0%	?	?
19	Cc1sc2ncnc(N3CCC(C(=O)NNC(=O)COc4cccc(C(F)(F)F)c4)CC3)c2c1C	0%	-3%	nt	nt	-7%	25µM*	nt	3%
20	COCCN1CCc2[nH]c(=S)[nH]c(=O)c2C1	-16%	-19%	-4.6%	-5%	31%	-13%	1%	9%
21	Cc1nnc(NC(=O)CN2CCN(Cc3ccccc3)CC2)s1	nt	-9%	nt	7%	-13%	0%	nt	nt
22	CC1(C)CC(=O)c2sc(NC(=O)C(C)(C)C)nc2C1	?	1%	nt	2%	12%	9%	nt	1%[46.1 µM]
23	N#Cc1ccccc1NC(=O)c1ccc2c(c1)OCO2	19%[46.1 µM]	0%	nt	-1%	-21%	22%	nt	-6%[46.1 µM]
24	Cc1ccc(S(=O)(=O)N2CCCC2CNC(=O)C(=O)Nc2ccc(F)cc2F)cc1 (stereo unspecified)	?	-3%	nt	nt	3%	6%	nt	?
25	CCN(C(=O)COC(=O)c1ccc(=O)n(Cc2ccccc2)n1)C1CCS(=O)(=O)C1 (stereo unspecified)	-14%	-2%	nt	nt	-11%	-24%	nt	9%
26	CC(C)(C)c1cc[n+](CC(=O)Nc2cc(C(F)(F)F)ccc2N2CCOCC2)cc1	3%[46.1 µM]	2%	nt	nt	-12%	-1%	nt	2%
27	COC(=O)c1ccc(C2NC(=O)NC(C)=C2C(=O)N(C)C)cc1 (stereo unspecified)	1%	9%	3.2%	-6%	-13%	-15%	-8%	10%
28	O=C1CN(C(=O)c2ccccc2F)C(c2ccc(F)cc2)c2cc(F)ccc2N1 (stereo unspecified)	7%[46.1 µM]	5%	nt	12%	10%	-13%	nt	-28%[46.1 µM]
29	CC(C)(C)C1CCC(=NNC(=O)c2ccco2)CC1 (stereo unspecified)	nt	-2%	nt	0%	10%	22%	nt	nt
30	Cc1cc(N)c2ccccc2[n+]1CCCCCCCCCC[n+]1c(C)cc(N)c2ccccc21	10µM*	nt	13µM*!	-51%	nt	?	?	?

Arranged by count of non-hydrogen atoms (low to high): 8 of the compounds above.
no.	Molecule	MARV entry inh	SARS PLP yeast	Cruzain Triton	NS1 function inh	RE007 growth inh	StopGo reporter	Cruzain inh noDet	Lassa entry inh
22	CC1(C)CC(=O)c2sc(NC(=O)C(C)(C)C)nc2C1	?	1%	nt	2%	12%	9%	nt	1%[46.1 µM]
23	N#Cc1ccccc1NC(=O)c1ccc2c(c1)OCO2	19%[46.1 µM]	0%	nt	-1%	-21%	22%	nt	-6%[46.1 µM]
17	Cc1cccc(C(=O)Oc2ccccc2-c2nnco2)c1	-11%	nt	0.4%	-10%	-14%	-10%	-11%	-8%
21	Cc1nnc(NC(=O)CN2CCN(Cc3ccccc3)CC2)s1	nt	-9%	nt	7%	-13%	0%	nt	nt
16	O=C(CSCC(=O)OCn1nnc2ccccc2c1=O)Nc1ccc(Cl)cc1	?	-17%	-3.7%	-36%	6%	11%	-23%	8%
28	O=C1CN(C(=O)c2ccccc2F)C(c2ccc(F)cc2)c2cc(F)ccc2N1 (stereo unspecified)	7%[46.1 µM]	5%	nt	12%	10%	-13%	nt	-28%[46.1 µM]
26	CC(C)(C)c1cc[n+](CC(=O)Nc2cc(C(F)(F)F)ccc2N2CCOCC2)cc1	3%[46.1 µM]	2%	nt	nt	-12%	-1%	nt	2%
30	Cc1cc(N)c2ccccc2[n+]1CCCCCCCCCC[n+]1c(C)cc(N)c2ccccc21	10µM*	nt	13µM*!	-51%	nt	?	?	?

Further results follow:
no.	Molecule	MARV entry inh	SARS PLP yeast	Cruzain Triton	NS1 function inh	RE007 growth inh	StopGo reporter	Cruzain inh noDet	Lassa entry inh
31	S=c1nc(-c2ccccc2)n(-c2ccccc2)[nH]1	20%&20%	0%	nt	1%	-4%	43%[activator]	nt	22%
32	COC(=O)C1=C(C)N(C)C(C)=C(C(=O)OC)C1c1ccc(Cl)cc1	-5%	2%	-3.1%	-12%	-8%	-11%	10%	10%
33	COc1ccc(C(=O)N/N=C/c2sc(N3CCOCC3)nc2-c2ccccc2)cc1OC	-30%	-1%	nt	-6%	-14%	-15%	nt	-25%
34	O=C(/C=C/c1cccs1)Nc1ccc(N2CCOCC2)c(S(=O)(=O)Nc2cc(Cl)ccc2Cl)c1	-29%&1%	6%	-3.5%	23%	2%	37%[activator]	5µM*	-4%&2%
35	O=C(c1ccc(N2CCCCC2)c([N+](=O)[O-])c1)N1CCC2(CC1)OCCO2	nt	-1%	nt	nt	-1%	10%	nt	-27%
36	O=C(N/N=C/c1ccc(Cl)cc1)Nc1ccccc1	?	-4%	-1.3%	-12%	?	8%	-4%	?
37	Cc1cccc(CN2CCN(CC(=O)NCCCN3CCN(c4ccc(F)cc4)CC3)C2=O)c1	?	3%	-0.3%	1%	-10%	?	6%	-12%
38	COc1ccccc1N1CCN(C(=O)c2ccc(Br)s2)CC1	-29%	-5%	1.4%	-42%	11%	nt	17%	-16%
39	Cc1ccnc(NC(=O)c2ccc(Cl)s2)c1	nt	-6%	nt	-14%	?	74%[activator]	nt	nt
40	COc1cc(/C=C2\SC(=Nc3c(C)n(C)n(-c4ccccc4)c3=O)NC2=O)ccc1O	8%	10%	-9.1%	12%	1%	-3%	-11%	2%
41	Cc1ccc(Cl)cc1NC(=O)C1CCN(S(=O)(=O)c2cccc3nonc23)CC1	29%[46.1 µM]	nt	-4.0%	nt	nt	0%	-17%	11%[46.1 µM]
42	Cc1ccc(C)c(CN2C(=O)CSc3ccc(C(=O)NCc4ccccc4)cc32)c1	nt	nt	-0.8%	nt	nt	0%	6%	22%[46.1 µM]
43	O=C(NNc1ccccc1F)c1ccccc1	?	-1%	nt	-1%	262%	-15%	nt	25%[46.1 µM]
44	CC(C)CC(=O)Nc1ccc(Oc2ccc(NC(=O)CC(C)C)cc2)cc1	-5%	?	2.3%	1%	-2%	-13%	?	-4%
45	Cc1cc(C)n2nc(C(=O)NNC(=O)c3ccc(Cl)cc3)nc2n1	nt	5%	nt	7%	-3%	28%	nt	nt
46	COc1ccc(C(=O)N/C(=C\c2ccco2)C(=O)NCCCn2ccnc2)cc1	-1%	-8%	-6.5%	-2%	-14%	6%	-7%	10%
47	Cc1[nH][nH]c(=O)c1C(c1ccc(-c2ccc(C(=O)O)cc2)o1)c1c(C)[nH][nH]c1=O	-21%[46.1 µM]	-2%	nt	12%	-27%	8%	nt	15%
48	CCOc1ccc(/C=C/c2nc(C#N)c(N3CCC(C)CC3)o2)cc1	?	nt	3.2%	nt	nt	?	7%	?
49	CN1C2CCC1CC(OC(c1ccccc1)c1ccccc1N)C2 (stereo unspecified)	18µM*	nt	-5.5%&4.0%	-5%	2%	-21%&-13%&-8%	6%&3%	?
50	c1ccc2c(c1)ccc1[nH]c3c(c12)CCCC3	0.5µM*	nt	nt	nt	?	-3%	nt	0.63µM*
